High-throughput results: PubChem BioAssay, Broad Institute
Tg IFNy HTS – T. gondii growth inhibition with IFN-gamma, primary screen, cell-based. Toxoplasma gondii growth in IFN-gamma-treated host cells; hits give low values; reference of the scale not given here. activity change, negative = inhibition, %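 (about 20 µM by stock and volumes)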. 3.8% of 69,000 active. AID 1259416, 2018;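 active = below -70%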;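 note: host cells are HeLa cells infected with Toxoplasma gondii; parasite growth read as luciferase light; one replicate is shown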
Numbers without * were called inactive; i = inactive; & = joins results of further samples. These rows are one share of the data; rates above refer to the full screens.

SMILES	Tg IFNy HTS
CCC(C)NC(=O)c1cncc(N(C)S(=O)(=O)c2ccccc2)c1 (stereo not drawn)	51
O=C(Nc1ccc2c(c1)OCCO2)C1CCCN(S(=O)(=O)Cc2ccccc2)C1 (stereo not drawn)	0
Cc1cc(C(=O)N2C[C@@H]3COC[C@@]3(CN3CCOCC3)C2)sc1C	-33
CC(C)CN1CC2CN(C(=O)Nc3ccccc3)CC21 (stereo not drawn)	5
O=C(CN=C1NS(=O)(=O)c2ccccc21)NC1CC(=O)N(c2ccc(F)cc2)C1 (stereo not drawn)	3
COc1cccc(C2CCCN2S(=O)(=O)N2CCc3ccccc3C2)c1 (stereo not drawn)	-6
Cc1ccc(C(=O)N2CC[C@@H]3[C@@H](CO[C@@H]3CNc3ncccn3)C2)o1	80
COc1ccc(-c2[nH]ncc2C=O)cc1OC	22
Cc1cccc2cc(CO)c(-c3ccc(S(C)(=O)=O)cc3)nc12	-3
Cc1ccc2c(c1C)-n1cccc1C1(CCN(C(=O)c3cccc(N(C)C)c3)CC1)N2	18
Cc1ccc(S(=O)(=O)N2C[C@H]3[C@@H](c4ccccc42)[C@@H](CO)N3Cc2cccnc2)cc1	5
COc1ccc(-c2ccnc(-c3cccs3)n2)cc1	-103*
CCOc1ccccc1C(=O)N1CCC2(CC1)Nc1ccccc1-n1cccc12	40
CCc1cc(-c2ccc3c(c2)OCCO3)ccc1NC(C)=O	136
C#CC(CC)(CC)NC(=O)NC(=O)c1ccc(F)c(Cl)c1	15
NC(=O)c1ccc(N(C(N)=O)c2c(F)cccc2F)nc1-c1ccc(F)cc1F	-7
O=C(NCCc1csc(-c2cccc(F)c2)n1)C(=O)Nc1ccc(Cl)cc1	13
CO[C@@H]1CO[C@@]2(CCCN(C(=O)c3ccncn3)C2)C1	-48
Fc1ccc(N2CCC(NCC3(Cn4cccn4)CC3)C2)cc1 (stereo not drawn)	-6
Cc1ncc2c(c1CNC(=O)c1ccccc1F)CCN(C(=O)c1c(F)cccc1Cl)C2	-1
Cc1cc(CNC(=O)CCCn2nc(C)cc2C)c2[nH]c3c(c2c1)CCCC3	121
COc1ccc(C(=O)N(Cc2ccccc2Cl)C2(C(=O)NCc3ccccc3)CCN(C(C)=O)CC2)cc1	15
CCc1cnc(C)nc1-c1cc(NCCO)nc2[nH]ccc12	-60
CCOc1ccc(CC(=O)NCCc2sc(-c3ccc(Cl)cc3)nc2C)cc1	-62

Part of the list above, in CSV form.
SMILES,Tg IFNy HTS
CCOc1ccccc1C(=O)N1CCC2(CC1)Nc1ccccc1-n1cccc12,40
CCc1cc(-c2ccc3c(c2)OCCO3)ccc1NC(C)=O,136

(list continues)
SMILES	Tg IFNy HTS
CN1CC2(CCN(C(=O)c3cc(-c4cccs4)nn3C)C2)OC1=O (stereo not drawn)	4
COCC(NC(=O)c1c(O)cccc1O)c1ccnn1C (stereo not drawn)	33
Cc1cccn2c(=O)c(/C=C/C3=CCN(C)CC3)c(N3CCN(C)CC3)nc12	-9
CSc1ccc(CNC(=O)c2nnn(Cc3nc(-c4ccc(C)cc4)oc3C)c2C)cc1	-48
O=C1NCCN(S(=O)(=O)NCc2ccccc2)C1c1cccc(F)c1 (stereo not drawn)	-4
COc1ccc(-c2ccc3n(c2=O)C[C@H]2[C@H](CO)[C@@H](C(=O)N4CCOCC4)N[C@@H]32)cc1	-3
CCn1c(C)nc2cc(NC(=O)c3cnc4sccn4c3=O)ccc21	214
CC(C)n1c2ccccc2c2c1cc(C(=O)NCCCN1CCOCC1)n2C(=O)N(C)C	-54
COc1ccc(-c2nc(NCCc3ccc(C)cc3)c3ccccc3n2)cc1	-41
COc1ccc(Oc2coc3cc(OC(=O)c4ccco4)ccc3c2=O)cc1	42
CC1(C)Oc2ccc(S(=O)(=O)N3CCC(O)(c4cccnc4)CC3)cc2NC1=O	-22
COc1ncc(C(=O)N2CCOC(c3ccc(Cl)c(Cl)c3)C2)cn1 (stereo not drawn)	-15
C[C@H]1CN2C[C@H](O)CC2CN1Cc1cc2cc3c4c(c2oc1=O)CCCN4CCC3 (stereo partly drawn)	8
CC1(C)CC(C(=O)N2CCn3c(C(N)=O)cnc3C2)CCO1 (stereo not drawn)	-6
COc1ccc(N2CCN(C(=O)c3nc(-c4cccc(F)c4)n4c3CCCCC4)CC2)cc1	43
O=C(/C=C/c1ccco1)Nc1ccccc1C(=O)O	40
Cc1ccc(C(=O)N2C[C@@H]3COC[C@]3(COCC3CC3)C2)o1	4
COc1cc(CNc2ccc(C)c(C)c2)cc(OC)c1OC	-25
CN(C)Cc1cn(CC[C@H]2CC[C@@H](NC(=O)Cc3cccnc3)[C@H](CO)O2)nn1	82
COCCN1C(=O)CCCC12CCCN(c1cccnc1)C2 (stereo not drawn)	-38
C[C@@H]1CN([C@@H](C)CO)C(=O)c2cc(NC(=O)Cc3ccccc3)ccc2O[C@@H](C)CCCCO[C@@H]1CN(C)Cc1ccncc1	-31
CC(=O)NCCc1csc(C2CCCN(C(=O)c3ccccc3)C2)n1 (stereo not drawn)	62
COc1ccc(S(=O)(=O)N2CCCC2c2cccs2)cc1 (stereo not drawn)	-20
CN(CCc1ccc(Cl)c(Cl)c1)CCN1CCCC1	2
O=C1C[C@H]2CC[C@@H](CN1)N2c1cncc(C(=O)N2CCOCC2)n1	-5
COCCN1C(=O)CCc2cc(NC(=O)c3ccc(F)cc3)ccc21	-23
O=C1NCCCC[C@@H]1NS(=O)(=O)NCc1ccccc1	3
C[C@H](CO)N1C[C@H](C)[C@@H](CN(C)C(=O)Nc2cccc(Cl)c2Cl)OCc2ccccc2-c2ccccc2C1=O	-52
CCOc1ccc(CCn2c(-c3ccco3)nc3ccccc3c2=O)cc1OCC	-4
Cc1cc2c(cc1C)NC(=O)c1ccccc1C(c1ccccc1)=N2	48
COCC(=O)N1[C@@H](C#N)[C@@H](c2ccc(C#CCC3CCCC3)cc2)[C@@H]1CO	2
C=CCn1cc(CN2CCN(S(=O)(=O)CC)CC2)c(C)n1	0
Cn1cc(CN2CCCC2CCNS(C)(=O)=O)cn1 (stereo not drawn)	1
COc1ccc2c3c([nH]c2c1)[C@H](CO)N(CC1CC1)CC31CCN(S(=O)(=O)c2cccc(F)c2)CC1	370
O=C(Cn1c(=O)cc(C(=O)N2CCCCC2)c2ccccc21)Nc1ccc(Br)cc1	3
N#CCCN(C(=S)Nc1ccc(Cl)cc1)C1CCCCC1	10
Cc1cc(C)n(C)c(=O)c1C(=O)N1CCO[C@@H]2CCCC[C@H]21	19
O=C(O)COc1cccc2c1CCCC2	99
Cc1ccc(Nc2nc(C(=O)NCc3ccccc3)nc3ccccc23)cc1	14
CO[C@H]1CC[C@@H]2CCOc3ccc(C#N)cc3C(=O)N(C)C[C@H](c3ccccc3)CC(=O)N(C)C[C@H]1O2	-23
O=C(Cn1ccnc1[N+](=O)[O-])NCc1ccccc1	14&15
c1cnc(N2CCC3(COCc4cnc(N5CCOCC5)nc43)C2)nc1 (stereo not drawn)	4
COc1ccccc1-c1ccc2c(c1)O[C@H](CN(C)CC1CCOCC1)[C@@H](C)CN([C@H](C)CO)S2(=O)=O	-52
CN(C)CCCNc1ncnc2c1cnn2-c1ccccc1	73
CCc1nc(OCC(=O)Nc2ccc(Cl)cc2Cl)c2ccccc2n1	0
Cc1ccccc1-c1nc2sc3c(c2c(=O)[nH]1)CCCC3	173
COCCNC(=O)[C@H]1C[C@@H]2OCC[C@@H]2N(Cc2ccoc2)C1	157
Cc1ccc(-c2nc(Cn3cnc4nc5c(cc4c3=O)CC(C)CC5)c(C)o2)cc1 (stereo not drawn)	-46
COc1cc(CNC(=O)C2(C)CCN(C(=O)c3ccc(Br)cc3)CC2)cc(OC)c1	-1
COc1ccc(-c2cc(-c3ccccc3)c3c(N)c(S(C)(=O)=O)sc3n2)cc1	28
Cc1cccnc1CN(C)C(=O)c1cc(CN2CCC(Cc3ccccc3)CC2)on1	9
CS(=O)(=O)N1CC(C(=O)NCc2nnc(-c3ccccc3)o2)Oc2ccccc21 (stereo not drawn)	12
CC(C)N(C)Cc1cnc2n1CCN(Cc1nccs1)CC2	-10
Cc1nc(C)c(S(=O)(=O)NC(CCN2CCCCC2)c2ccccc2)s1 (stereo not drawn)	7
N#C[C@@H]1C[C@@H]2C[C@@H]2N1C(=O)[C@@H](N)C12CC3CC(CC(O)(C3)C1)C2	15
CN(C)C(=O)NCc1cc(=O)n2c(n1)CN(Cc1ccoc1)CCC2	5
O=C(NCc1cnc2c(c1)CCC2)C1CC(=O)N(Cc2ccccn2)C1 (stereo not drawn)	3
O=C(NCCc1c[nH]c2ccccc12)C1CCCN1c1nnc(N2CCCC2=O)s1 (stereo not drawn)	41
COCC(NC(=O)CCN1CCCCO1)c1ccnn1C (stereo not drawn)	6
COc1ccc(NC(=O)N2[C@H]3CCNC[C@@H]2CC3)c(C)c1	8
The results go on.
SMILES	Tg IFNy HTS
CCOc1ccc(NC(=O)CN2C(=O)CCc3cc(S(=O)(=O)N4CCC(C)CC4)ccc32)cc1	-26
Cc1ccc(C(=O)N2CCOCC3(CCC(Cn4cncn4)O3)C2)cn1 (stereo not drawn)	105
CCC(NC1CCN(S(C)(=O)=O)CC1)c1cccs1 (stereo not drawn)	66
CCC(C)NS(=O)(=O)c1ccc(NC(=O)CNCc2cccs2)cc1 (stereo not drawn)	-47
CO[C@H](CN(C)S(=O)(=O)c1cn(C)cn1)[C@H](C)CN(C(=O)Nc1ccc(C(F)(F)F)cc1)[C@H](C)CO	-50
COc1cccc2c1c(NC(=O)c1nccnc1C(=O)O)nn2C	-46
c1coc(CN(Cc2ccsc2)Cc2cnc[nH]2)c1	-3
CCCCOc1ccccc1-c1cc2c(=O)n(Cc3nc(-c4cccc(Cl)c4)oc3C)ccn2n1	-18
CCOC(=O)CCCc1sc(N)nc1-c1[nH]c(=O)[nH]c1C	1
Cc1ccc(CN2CCOC(CCNS(C)(=O)=O)C2)cc1C (stereo not drawn)	1
Cc1nc(CN2CCc3ncc(CN(C)C(C)C)n3CC2)cs1	3
Cc1noc(C)c1S(=O)(=O)Nc1ccc2c(c1)CC(=O)N([C@H](C)CO)C[C@@H](C)[C@@H](CN(C)Cc1ccc(Oc3ccccc3)cc1)O2	-54
CC(C)CNc1nc2c(cc1C(=O)NCC1CC1)CCN(c1ncccn1)CC2	-1
COCCN1C(=O)N(C2Cc3ccccc3C2)C(=O)C12CCN(Cc1cn(C)c3ccccc13)CC2	-17
OCc1cn(-c2ccccc2)nc1-c1cc2ccccc2o1	259
O=C(Nc1cccc(F)c1)N1CCC2(CC1)Nc1cc(F)ccc1-n1cccc12	i
COc1cc(Cc2nc(CC(C)C)n[nH]2)cc(OC)c1OC	23
COc1ccc(-c2nnc(-c3nc(NC4CCCCC4)c4ccccc4n3)o2)cc1	-23
Cc1nc(CCNC(=O)[C@H]2CCCN2S(=O)(=O)c2cccc3nsnc23)cs1	-48
Cc1ccc(NCc2nnc(SCC(=O)c3ccc4c(c3)OCCO4)o2)c(C)c1	2
Cc1cccc(Nc2nc(C(=O)NC3CCCCCC3)nc3ccccc23)c1	-51
COC(=O)[C@@H]1C[C@@H](NC(=O)c2cc(Cl)cc(OC)c2)CN1C	8
CCOC(=O)c1nc(N(C)c2ccccc2C)c2ccccc2n1	-18
COc1ccc(-c2nc(CNS(=O)(=O)c3c(C)cc(C)cc3C)c(C)o2)cc1	39
O=C(O)CCNS(=O)(=O)c1ccc(Br)cc1	11
CCn1c(=O)c(-c2nc(-c3ccccc3)no2)c(O)c2cc(F)ccc21	-52
Cc1ccccc1NC(=O)N1C[C@H]2C[C@H](C(=O)NC3CCC3)[C@@H](C1)O2	-9
CCCNC(=O)N1[C@H](CO)[C@H](c2ccccc2C2=CCCCC2)[C@@H]1C#N	-33
Clc1ccc(-c2nc3sc4nc5ccccc5nc4n3n2)c(Cl)c1	33
CS(=O)(=O)N1CCC(CC(=O)O)CC1	0
CN1[C@@H]2Cn3c(ccc(-c4ccncc4)c3=O)[C@H]1[C@@H](C(=O)N1CCC(Cc3ccccc3)CC1)[C@@H]2CO	-18
CCn1c(CC2CCN(Cc3nc(C(C)C)cs3)CC2)n[nH]c1=O	-2
CCc1oc2c(-n3cnnc3)cccc2c1C	-10
Cc1nn(C(F)F)c(C)c1S(=O)(=O)N1CCN(c2nccs2)CC1	29
O=C(NC1(c2cccc(F)c2)CCCC1)c1ccc(S(=O)(=O)N2CCOCC2)cc1	-3
Cc1nc(-c2ccccc2)sc1CCNC(=O)C(=O)Nc1ccc(F)cc1	296

In another format: results already given
canonical_smiles,Tg IFNy HTS
O=C(Nc1cccc(F)c1)N1CCC2(CC1)Nc1cc(F)ccc1-n1cccc12,i
COc1cc(Cc2nc(CC(C)C)n[nH]2)cc(OC)c1OC,23
COc1ccc(-c2nnc(-c3nc(NC4CCCCC4)c4ccccc4n3)o2)cc1,-23
Cc1nc(CCNC(=O)[C@H]2CCCN2S(=O)(=O)c2cccc3nsnc23)cs1,-48
Cc1ccc(NCc2nnc(SCC(=O)c3ccc4c(c3)OCCO4)o2)c(C)c1,2
Cc1cccc(Nc2nc(C(=O)NC3CCCCCC3)nc3ccccc23)c1,-51
COC(=O)[C@@H]1C[C@@H](NC(=O)c2cc(Cl)cc(OC)c2)CN1C,8
CCOC(=O)c1nc(N(C)c2ccccc2C)c2ccccc2n1,-18
COc1ccc(-c2nc(CNS(=O)(=O)c3c(C)cc(C)cc3C)c(C)o2)cc1,39
O=C(O)CCNS(=O)(=O)c1ccc(Br)cc1,11
CCn1c(=O)c(-c2nc(-c3ccccc3)no2)c(O)c2cc(F)ccc21,-52
Cc1ccccc1NC(=O)N1C[C@H]2C[C@H](C(=O)NC3CCC3)[C@@H](C1)O2,-9
CCCNC(=O)N1[C@H](CO)[C@H](c2ccccc2C2=CCCCC2)[C@@H]1C#N,-33
Clc1ccc(-c2nc3sc4nc5ccccc5nc4n3n2)c(Cl)c1,33
CS(=O)(=O)N1CCC(CC(=O)O)CC1,0
CN1[C@@H]2Cn3c(ccc(-c4ccncc4)c3=O)[C@H]1[C@@H](C(=O)N1CCC(Cc3ccccc3)CC1)[C@@H]2CO,-18

Next records follow:
SMILES	Tg IFNy HTS
Cc1ccccc1S(=O)(=O)N1CCC(c2nc(C(=O)N(C)C)c(C)o2)CC1	-25
O=C(C1CCOCC1)N(CCO)CCSc1ccc(Cl)cc1	5
O=C(NCCc1csc(-c2ccc(F)cc2)n1)C(=O)Nc1ccc2c(c1)OCO2	-40
CN(C)S(=O)(=O)c1ccc2c(c1)cc(C(=O)NCCCN1CCCC1)n2Cc1ccncc1	103
